High-throughput results from PubChem.
LANA-H2B inh = blocks KSHV LANA binding to histone H2A/H2B | Q9QR71 | cell-free LANA-H2A/H2B peptide, fluorescence polarization | inhibition, % (no concentration beside the values) | actives 0.6% (n = 320,000) | AID 2629; in the data active = inhibition mostly above about 10%, no sharp cut-off; inactive = mostly below about 6.7%;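 note: stock transfer was 7.5 nL into about 10 µL; 0% = median of vehicle wells and 100% = median of positive control wells; one replicate is shown; the record names a cut of 25% in any replicate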
Target sequence (Q9QR71 whole entry, looked up): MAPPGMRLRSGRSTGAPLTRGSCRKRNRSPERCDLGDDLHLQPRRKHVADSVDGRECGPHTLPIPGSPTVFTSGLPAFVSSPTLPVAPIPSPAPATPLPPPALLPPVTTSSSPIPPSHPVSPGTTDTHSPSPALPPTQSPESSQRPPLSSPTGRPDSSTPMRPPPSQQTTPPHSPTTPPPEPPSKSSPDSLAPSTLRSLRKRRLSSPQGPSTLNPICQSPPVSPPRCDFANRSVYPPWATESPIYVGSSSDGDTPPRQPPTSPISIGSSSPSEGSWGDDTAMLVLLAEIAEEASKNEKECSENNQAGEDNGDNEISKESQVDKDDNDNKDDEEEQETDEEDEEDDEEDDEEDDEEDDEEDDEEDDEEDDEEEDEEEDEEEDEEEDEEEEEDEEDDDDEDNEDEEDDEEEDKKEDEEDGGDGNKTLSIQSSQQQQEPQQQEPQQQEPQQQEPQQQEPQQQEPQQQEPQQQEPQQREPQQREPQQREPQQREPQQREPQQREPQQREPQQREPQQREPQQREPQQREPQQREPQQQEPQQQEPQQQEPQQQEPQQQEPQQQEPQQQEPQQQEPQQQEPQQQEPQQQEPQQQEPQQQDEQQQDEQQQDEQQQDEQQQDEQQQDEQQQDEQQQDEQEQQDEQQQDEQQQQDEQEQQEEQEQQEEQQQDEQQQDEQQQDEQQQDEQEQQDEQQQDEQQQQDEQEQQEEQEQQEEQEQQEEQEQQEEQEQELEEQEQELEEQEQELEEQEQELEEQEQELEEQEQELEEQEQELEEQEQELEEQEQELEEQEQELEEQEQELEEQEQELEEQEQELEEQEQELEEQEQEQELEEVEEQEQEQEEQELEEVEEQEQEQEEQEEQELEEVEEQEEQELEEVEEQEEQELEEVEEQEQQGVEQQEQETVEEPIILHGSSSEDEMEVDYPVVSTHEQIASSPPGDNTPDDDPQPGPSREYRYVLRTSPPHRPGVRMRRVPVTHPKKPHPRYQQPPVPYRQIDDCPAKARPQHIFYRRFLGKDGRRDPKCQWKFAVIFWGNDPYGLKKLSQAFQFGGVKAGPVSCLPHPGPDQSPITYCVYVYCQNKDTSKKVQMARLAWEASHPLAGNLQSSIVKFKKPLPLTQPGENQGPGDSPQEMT
Beta2AR agonist = human beta-2 adrenergic receptor agonism by FAP; P07550; Am2.2-beta2AR cells, FAP receptor internalization, flow cytometry; reference of the scale not given here; response, % (no concentration beside the values); actives 0.43% (n = 340,000); AID 504454;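 active = response above a set limit, near 3 SD of response in nonfluorescent compounds, cut at about 42% in these data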;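 note: stock transfer was 100 nL into about 11 µL; a reference agonist was the positive control; negative values mostly stem from fluorescent compounds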
ALR H2O2 inh = human ALR oxidase inhibition via reduced H2O2 | purified ALR, DTT oxidation, H2O2 HRP-luminol luminescence | inhibition, % (test concentration not listed) | actives 3.8% (n = 290,000) | AID 485317;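 active = mean and each replicate at 75% or more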;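 note: stock transfer was 7.5 nL into about 7.5 µL; 0% = neutral wells and 100% = wells with inactivated enzyme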
E coli growth = blocks Escherichia coli growth. OD600 absorbance (no concentration beside the values). OD600, 23 h; stronger effect = lower value. AID 1053175. actives 0.21% (n = 330,000);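 active = OD600 absorbance below the run mean of sample wells minus 3.6 SD, in any replicate, cut at about 0.56 in these data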;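 note: stock transfer was 300 nL into about 60 µL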
HNF4A DNA FP = change in binding of human HNF4 alpha to DNA. P41235. HNF4a-FITC DNA binding, fluorescence polarization, 1 h. activity change, % at 10 µM. actives 0.3% (n = 360,000); in the data active = activity change above about 30%, passing the limit was not always enough;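 note: controls were the assay level and a saturating level of protein; the project sought stronger binding though the title names inhibitors; some compounds called inactive have numbers as strong as hits; positive values seem to mean higher polarization but the record does not say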
FGF22 binding = binders of recombinant human FGF22 by thermal shift | Q9HCT0 | SYPRO orange fluorescence; percent of sucrose octasulfate shift, DMSO zero | calls only at 9.99 µM | actives 1.5% (n = 340,000);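 active = melting point raised past a set limit in the mean and every replicate; three in four hits are not shown here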
UCH37 inh = blocks the human deubiquitinase UCH37. inhibition, % (concentration not given with the values). AID 588478. actives 0.33% (n = 330,000). Q9Y5K5. purified proteasome/UCH37, Ub-AMC cleavage fluorescence;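 active = mean of two replicates above 20%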;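 note: 0% = compound-free wells with enzyme and 100% = wells lacking proteasome; stock transfer was 100 nL into about 20 µL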
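Reagent: Ub-AMC substrate; assay system: Proteasome-associated human UCH37 deubiquitinase; controls: no-proteasome and no-compound wells; read-out: % inhibition of Ub-AMC cleavage fluorescence; timing: 30 min preincubation with enzyme, 25 min cleavage at room temperature; signal: AMC fluorescence from Ub-AMC cleavage, excitation 355 nm, emission 460 nm; buffer or medium: Tris-HCl pH 7.4 plus ovalbumin, ATP-MgCl2, DTT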
* marks the source's active call; other numbers are inactive results; i = inactive; / = not tested or not shown. The list is partial; the hit share may differ from the screen's.

SMILES	LANA-H2B inh	Beta2AR agonist	ALR H2O2 inh	E coli growth	HNF4A DNA FP	FGF22 binding	UCH37 inh
O=C(c1sc(N2CCOCC2)nc1-c1ccccc1)N1CCCCC1	2.1	-2	-47	0.72	0.3	i	3.4
CC1(C)CC(N(Cc2ccco2)C(=O)Cc2ccccc2)CCO1 (stereo unspecified)	3.7	4	17	0.64	-1.6	/	4.5
Cc1c(C)n(C)c2ccc(C(=O)NCCN3CCOCC3)cc12	-3.9	18	6	/	0.3	i	/
CC(=O)N1c2ccc(S(=O)(=O)N3CCC(C(=O)N4CCCCC4)CC3)cc2CC1C (stereo unspecified)	2.8	-2	-18	0.73	-0.9	i	1.0
COC(=O)Nc1nnc(Cc2ccccc2)s1	3.4	0	1	0.65	-2.5	/	-1.5
Cn1c(-c2ccc(F)cc2)cc2onc(-c3ccccc3Cl)c2c1=O	2.4	-6	2	0.62	-1.8	i	3.0
Cc1ccc(C2=NC3(CCCC3)NC2=S)cc1	-1.2	1	-4	0.68	2.1	i	3.4
CCn1ncc(-c2ccnc3cc(C(=O)O)nn23)c1C	-2.9	-1	-1	0.68	1.2	/	-411
NS(=O)(=O)c1ccc(CNC(=O)c2cc(S(=O)(=O)N3CCOCC3)c(Cl)cc2Cl)cc1	/	12	/	0.69	0.0	i	1.4
CCOc1ccc(NC(=O)CN(C)C(=O)c2cc(-c3ccco3)nc3ccccc23)cc1OCC	/	8	/	0.7	0.1	i	-163
O=C(CCS(=O)(=O)Cc1ccccc1)N1CCN(Cc2ccccc2)CC1	2.9	1	-2	0.65	0.5	i	4.6
Cc1cccc(OCCNC(=S)NC(=O)c2cncc(Br)c2)c1	0.7	-3	1	0.7	3.5	i	2.2
CC(OC(=O)Nc1cccc(Cl)c1)C(=O)OC1CCCCC1 (stereo unspecified)	/	4	/	0.61	3.2	i	2.9
COCCn1c(=NC(=O)c2ccc3c(c2)OCCO3)sc2cc(S(N)(=O)=O)ccc21	-4.4	15	1	0.67	7.6	i	-40
O=C1CCC/C=C/C[C@@H](CC(=O)N(CCO)Cc2ccccc2)C(=O)NC[C@H](c2ccccc2)O1	0.3	-4	1	/	0.2	i	0.5
CN1CCN(C(=S)NC(=O)/C=C/c2ccccc2)CC1	3.5	1	1	0.73	1.7	/	0.5
CCc1nnc(NS(=O)(=O)c2ccc(N=Cc3c(C)[nH]n(-c4cccc(Cl)c4)c3=O)cc2)s1	-1.3	3	34	0.62	2.6	i	7.1
CCCCNC(=O)c1onc(CSc2ccccc2F)c1C(=O)O	-5.4	10	6	0.65	-0.2	i	1.3
O=C(COC(=O)c1cc([N+](=O)[O-])ccc1N1CCOCC1)c1ccc(Br)cc1	-17	11	-4	0.6	-0.8	i	4.8
C=CCn1c(SCC(=O)NCC2CCCO2)nnc1-c1ccccc1 (stereo unspecified)	-4.4	8	-36	0.7	1.0	i	4.3
CCN(CC)CC(=O)Nc1ccc(-c2ccc(NC(=O)CN(CC)CC)c(OC)c2)cc1OC	3.2	0	-18	0.64	-1.3	i	-3.4
Cc1ccc(Nc2nc(-c3sc(C)nc3C)cs2)cc1	-6.1	13	8	0.65	-4.3	i	-0.3
CC1(C)SC(=Nc2ccccc2)N(S(=O)(=O)c2ccccc2)C1=O	0.6	-2	-1	0.7	-0.2	i	-1.1
C[N+]1(CC(=O)OCCCc2ccccc2)CCCCC1	4.1	-1	-5	0.69	-2.2	/	4.5
CCNc1ccc(C(=O)OCC)cc1NC(=O)c1cc(S(=O)(=O)N2CCOCC2)ccc1C	-3.8	-3	-6	0.66	-0.9	/	2.4
N#C/C(=C\c1ccc(-c2ccccc2[N+](=O)[O-])o1)C(=O)Nc1nc(-c2cccs2)cs1	-1.5	11	5	0.68	-9.1	/	14
Nc1nc(N2CCN(c3ccccc3)CC2)n[nH]1	1.0	-7	100*	0.67	-6.5	i	-0.3
COc1cccc(NC(=S)NCCC(c2ccccc2)c2ccccc2)c1	-1.2	-10	-7	0.77	-4.2	/	2.4
CCN(CC)CCN(C(=O)c1ccc2ccccc2c1)c1nc2ccc(F)cc2s1	-1.7	-1	-2	0.68	-2.8	i	5.8
CCCCSC1=C(C#N)C(c2ccccc2C)CC(=O)N1 (stereo unspecified)	-4.8	32	-2	0.73	-0.6	i	4.3
O=C(Cn1ncc2c([nH]c3ccccc32)c1=O)NCCc1ccc(Cl)cc1	1.3	-3	-3	0.7	1.6	i	-1.4
CCCOc1ccccc1NC(=O)CC1Nc2ccccc2NC1=O (stereo unspecified)	0.9	-12	0	0.71	6.0	/	-0.3
Cc1cc(N2CCN(C)CC2)nc2ccc(NC(=O)c3ccc4c(c3)OCO4)cc12	-2.5	12	2	0.7	2.7	/	3.7
CCN(CC)C1=CC(=O)OC12CCCCC2	0.8	2	-13	0.65	0.5	/	4.1
O=C(c1sc2cccc(F)c2c1Cl)N1CCN(c2ncccn2)CC1	-1.4	3	3	0.63	-3.5	/	-2.9
Cc1cc(C)n(C(=O)CCCCCCCC(=O)n2nc(C)cc2C)n1	-8.9	0	0	0.65	-2.4	/	-2.4
CCCCOCCCNC(=O)c1cccs1	-0.9	1	-2	0.67	-1.2	/	2.1
C/C(=C\C(=O)c1cccnc1)Nc1ccc(C(=O)O)cc1	3.4	1	-29	0.73	-0.9	/	16
Cc1cc(C)c(S(=O)(=O)N2CCN(C(=O)c3cc(=O)[nH]c4ccccc34)CC2)c(C)c1	8.6	7	-4	0.64	-3.7	i	-9.8
COc1ccc(C(C)(C)C)cc1NC(=O)CCN1C(=O)NC(C)(C)C1=O	-0.9	-10	5	0.66	-0.2	i	4.5
CSCCC(NS(=O)(=O)c1ccc(C)cc1)C(=O)NC1CCCCCC1 (stereo unspecified)	-6.8	1	0	0.67	-0.8	i	4.4
Cc1ccc(C)c(NC(=O)CCN2CCc3ccccc3C2)c1	-3.9	4	-5	0.72	6.5	i	2.6
NCCCCCC(=O)Nc1ccncc1	0.8	1	-9	0.65	-4.9	i	4.6
Cc1ccc(OC(=O)c2ccc(C)c(C)c2)cn1	0.0	2	-1	0.67	3.6	/	0.1
Cc1nccn1C[C@@H]1CCc2c(c3ccccc3n2C)C1=O	0.9	-17	-8	/	-1.9	i	0.1
CCOC(=O)CNC(=O)CSc1nnnn1-c1ccc(C)c(C)c1	-1.7	6	-1	0.68	1.8	/	-0.1
CC1=CCC2C(=O)N(c3ccccc3OC(=O)c3ccccc3F)C(=O)C2C1 (stereo unspecified)	1.1	4	-1	0.64	-2.3	i	2.9
Cc1cccc2cc(CN(CCN3CCOCC3)C(=O)Nc3ccccc3F)c(=O)[nH]c12	/	5	/	0.72	-1.9	i	-4.5
Nn1cc(-c2ccccc2)nc1SCC(=O)N1CCN(S(=O)(=O)c2ccc3ccccc3c2)CC1	-4.0	2	-13	0.67	6.0	/	3.6
CC(C)CC(NS(=O)(=O)c1ccc2c(c1)oc(=O)n2C)C(=O)NCc1cccnc1 (stereo unspecified)	3.4	-5	0	0.72	0.3	i	0.0
(listing goes on)
SMILES	LANA-H2B inh	Beta2AR agonist	ALR H2O2 inh	E coli growth	HNF4A DNA FP	FGF22 binding	UCH37 inh
Cc1ccc(NC(=O)Nc2ccc(F)cc2F)c(OC(F)F)c1	102*	-1	/	/	0.9	i	/
CCOc1ccc2oc(C(=O)OCC(=O)N3C(C)CCCC3C)c(C)c2c1 (stereo unspecified)	-0.4	-4	-4	0.67	-2.4	i	-43
CCC1=NN(C(=O)COc2ccccc2C)C(O)(c2ccncc2)C1 (stereo unspecified)	1.7	-10	/	0.74	-1.8	i	-2.6
O=C(/C=C/c1ccc(Cl)cc1)NC1CCS(=O)(=O)C1 (stereo unspecified)	-5.6	-2	-9	0.65	-0.6	i	3.6
CS(=O)(=O)Nc1cccc(C2=NN(S(C)(=O)=O)C(c3ccc4c(c3)OCO4)C2)c1 (stereo unspecified)	0.2	14	-28	0.75	36*	/	2.8
CCCc1c(NC(=O)Nc2ccc(Cl)cc2Cl)cnn1-c1ccccc1	-0.3	0	-3	0.71	1.0	i	7.3
COc1ccc2nc(NC(C)=O)sc2c1	1.7	-1	-5	0.69	1.3	/	0.6
Cc1[nH][nH]c(=O)c1[C@@H](c1ccccc1[N+](=O)[O-])C(C#N)C#N	7.3	13	10	0.69	-1.0	i	-0.7
CC(C)NC(=O)c1ccc(COCC(F)(F)F)cc1	-3.0	0	-7	0.7	-1.9	/	2.6
COc1ccccc1N1CCN(C2CC(=O)N(c3ccc(Cl)cc3)C2=O)CC1 (stereo unspecified)	-0.3	-1	/	0.67	1.3	i	2.6
COC(=O)c1ccc2[nH]ccc2c1	-2.0	-2	-8	0.71	-1.6	i	-1.0
C[C@@]12C(=O)N(Cc3ccc(Cl)cc3)CC(=O)N1[C@H]1c3ccccc3OC[C@@H]1[C@@H]2c1ccccc1	-0.9	0	-3	/	-0.7	i	4.5
COc1ccc(OCC(O)Cn2c(N3CCCCC3)nc3c2c(=O)[nH]c(=O)n3C)cc1 (stereo unspecified)	-19	2	3	0.67	1.9	i	0.5
CC1CCCCC1NC(=O)NC(=O)COC(=O)c1ccc(OC(F)F)cc1 (stereo unspecified)	/	-6	/	0.68	-1.5	i	0.0
Cc1cccc2sc(NC(=O)CCNS(=O)(=O)c3cccs3)nc12	4.0	5	/	0.67	2.3	/	0.5
Cc1ccc(C(=O)N2CCCC(Nc3ccc(F)cc3)C2)cc1C (stereo unspecified)	3.0	10	99*	0.71	-0.3	i	0.1
CN(CC1CCCN(CCc2cccc(C(F)(F)F)c2)C1)C(=O)c1ccco1 (stereo unspecified)	2.4	8	2	0.65	-0.9	i	0.4
O=C(Cn1c(=O)oc2ccccc21)NC(=O)NCc1ccccc1	1.9	-6	-2	0.72	-1.9	/	-2.4
O=C(COc1ccc(Cl)cc1Cl)NN=C1CCCCC1	1.5	-7	41	0.72	-2.3	i	-0.4
CN(CCCNC(=O)C1CCN(S(=O)(=O)c2cccc3nsnc23)CC1)Cc1ccccc1	-1.8	-1	-17	0.7	-2.1	/	-0.3

Structural class: the compounds so far with bromine (2)
SMILES	LANA-H2B inh	Beta2AR agonist	ALR H2O2 inh	E coli growth	HNF4A DNA FP	FGF22 binding	UCH37 inh
Cc1cccc(OCCNC(=S)NC(=O)c2cncc(Br)c2)c1	0.7	-3	1	0.7	3.5	i	2.2
O=C(COC(=O)c1cc([N+](=O)[O-])ccc1N1CCOCC1)c1ccc(Br)cc1	-17	11	-4	0.6	-0.8	i	4.8

Back to the main list, repeating the 3 entries before the break.
SMILES	LANA-H2B inh	Beta2AR agonist	ALR H2O2 inh	E coli growth	HNF4A DNA FP	FGF22 binding	UCH37 inh
O=C(Cn1c(=O)oc2ccccc21)NC(=O)NCc1ccccc1	1.9	-6	-2	0.72	-1.9	/	-2.4
O=C(COc1ccc(Cl)cc1Cl)NN=C1CCCCC1	1.5	-7	41	0.72	-2.3	i	-0.4
CN(CCCNC(=O)C1CCN(S(=O)(=O)c2cccc3nsnc23)CC1)Cc1ccccc1	-1.8	-1	-17	0.7	-2.1	/	-0.3
CN1CCC(=C2c3ccccc3C(O)c3ccccc32)CC1 (stereo unspecified)	0.4	-1	/	0.6	1.6	i	1.4
CCOC(=O)C(C)c1nc2ccccc2[nH]c1=O (stereo unspecified)	0.6	3	-8	0.68	-0.8	/	-35
COc1ccc(-n2nnnc2SC(C)C(N)=O)cc1 (stereo unspecified)	2.2	0	-3	0.65	4.0	i	3.0
CC(C)OC(=O)CCC1(C(=O)O)CCC(=O)NC1 (stereo unspecified)	2.9	3	-1	0.71	5.4	i	4.9
CS(=O)(=O)N1CCN(C2CCN(Cc3ccccc3)CC2)CC1	11	-10	-4	0.7	-2.3	/	4.6
N#Cc1nnn(-c2ccc(Cl)cc2)c1N	1.8	5	4	0.69	1.3	/	-3.1
Cc1cccc(N2C(=O)C3CCCN3C2=S)c1 (stereo unspecified)	-1.5	1	3	0.63	-0.1	i	2.4
